# MT1-MMP act inh: blockers of MT1-MMP proenzyme processing, primary screen, HT1080 RFP-PRO-GFP cells, GFP/RFP fluorescence | GFP/RFP ratio fluorescence, overnight; percent of plate control window, DMSO zero | GFP/RFP ratio change, % at 20 µM | AID 651647, 2012 | Matrix metalloproteinase-14 (Homo sapiens), P50281 | hit rate 0.061% among 360,000;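 active = GFP/RFP ratio change of at least 30% with cell ATP level not reduced by more than half and red fluorescence within 50% of control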; note: strong numbers were not always called active
#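 Assay system: HT1080 RFP-PRO-GFP cells | Dosing: 20 µM single dose, 1% DMSO | Incubation: Cells overnight before dosing, compound overnight, 37 °C, 5% CO2 | Evaluation: GFP/RFP fluorescence ratio | Control set: DMSO-only wells and HT1080 RFP-L50D-GFP cell wells as references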
# CSC inhib: cancer stem cell viability inhibitors, primary screen, luminescence; cancer stem cell-like cells viability; inhibition, % at 7.5 µM; hit rate 1.1% among 300,000;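 active = mean at 75% or more and at least half the replicates too; inconclusive = mean and replicates disagree; tested in HMLE shEcad cells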;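 note: 0% = median of negative and 100% = median of positive control wells; the first replicate is given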
# PABP polyA inh: PABP poly(A) RNA binding inhibitors, primary screen, biochemical, fluorescence polarization, uHTS; hit rate 1% among 290,000; Polyadenylate-binding protein 1 (Homo sapiens), P11940; inhibition, % at 35 µM; AID 2014, 2009;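 active = 50% or more with normal probe brightness, or confirmed in later tests; inconclusive = above 50% with abnormal brightness, or retests that disagree; inactive = below 50% or failed in later tests; about a fifth of its hits are not listed in these tables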;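 note: calls also rest on retests at 20 µM and on dose response follow-up; controls were probe without protein and protein plus probe with vehicle; some compounds called inactive have numbers as strong as hits; many hits fall short of the cut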
# Target sequence (P11940 whole entry, looked up): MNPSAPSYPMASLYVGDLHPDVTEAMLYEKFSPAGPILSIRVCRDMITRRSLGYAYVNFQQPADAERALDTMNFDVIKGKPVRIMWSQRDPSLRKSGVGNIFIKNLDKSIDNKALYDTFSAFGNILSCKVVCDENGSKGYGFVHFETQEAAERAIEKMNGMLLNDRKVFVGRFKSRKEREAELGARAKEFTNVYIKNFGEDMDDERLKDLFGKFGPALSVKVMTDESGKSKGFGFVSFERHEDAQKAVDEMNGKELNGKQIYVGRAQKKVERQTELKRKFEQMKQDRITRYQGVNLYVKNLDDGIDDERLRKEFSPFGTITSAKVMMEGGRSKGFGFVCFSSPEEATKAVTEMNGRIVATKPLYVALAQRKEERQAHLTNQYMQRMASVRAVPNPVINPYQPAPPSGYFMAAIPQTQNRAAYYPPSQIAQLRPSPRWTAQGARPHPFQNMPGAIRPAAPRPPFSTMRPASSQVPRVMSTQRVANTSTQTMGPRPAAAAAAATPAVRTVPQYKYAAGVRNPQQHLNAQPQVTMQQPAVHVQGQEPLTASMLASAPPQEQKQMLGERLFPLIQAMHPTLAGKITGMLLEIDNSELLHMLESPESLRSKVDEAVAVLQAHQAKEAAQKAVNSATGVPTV
# Yeast UUG start: modulators of yeast start codon fidelity, primary screen, whole organism, S. cerevisiae, single point, plate reader; hit rate 0.13% among 350,000; activity score, % at 18.7 µM; S. cerevisiae UUG-firefly luciferase reporter, luminescence/redox ratio;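 active = replicate mean at a twofold rise or more, about +100% in these data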;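 note: firefly luciferase made from a UUG start codon reports start codon fidelity; reporter light over untreated wells divided by growth signal over untreated wells; some hits fall short of that in this replicate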
# Env fusion inh: inhibitors of HIV-1 Env-driven cell-cell fusion, primary screen, HeLa-JRFL effector, CEM21 target cells, luciferase; AID 651610, 2012; inhibition, % at 12.3 µM; hit rate 1.1% among 360,000;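 active = mean replicate inhibition score of at least 50 and every replicate individually at or above 50; inconclusive = only one of the two criteria met; inactive = mean below 50 and not all replicates reaching 50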;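 note: 0% = plate neutral controls and 100% = maraviroc near 300 nM; one replicate is shown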
# eIF4H FP inh: human eIF4H binding inhibitors, primary screen, translation initiation inhibitor project, biochemical, uHTS, fluorescence polarization; inhibition, % at 35 µM; eIF4H fluorescence polarization binding assay; hit rate 0.94% among 290,000; AID 2012, 2009; Eukaryotic translation initiation factor 4H (Homo sapiens), Q15056;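 active = 50% or more with normal probe brightness, or confirmed in later tests; inconclusive = above 50% with abnormal brightness, or retests that disagree; inactive = below 50% or failed in later tests; about a fifth of its hits are not listed in these tables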;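 note: calls also rest on retests at 20 µM and on dose response follow-up; 0% = protein and probe with vehicle and 100% = probe without protein; strong numbers were not always called active; many hits fall short of the cut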
# Rce1 inh: yeast Rce1p protease inhibitors, primary screen, biochemical, fluorescence, cell-free homogeneous. CAAX prenyl protease 2 (Saccharomyces cerevisiae (strain ATCC 204508 / S288c)), Q03530. calls only. hit rate 0.27% among 290,000. yeast membranes, quenched prenylated peptide cleavage fluorescence. AID 2563, 2010;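 active = fall in fluorescence gain of 50% or more versus controls, with final raw signal at or below 3038400; inconclusive = same 50% fall but final raw signal above 3038400; inactive = fall in fluorescence gain under 50%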;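 note: plate controls were neutral control wells for no effect and wells lacking membranes for full effect; tested at 10 µM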
# eIF4H FP inh retest: second read-out of eIF4H FP inh, no call of its own (marks repeat the call); inhibition, %; compound at 20 µM; confirmation average;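 mean of two retest wells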
# PABP polyA inh retest: also measured in PABP polyA inh; calls as there; inhibition, %; compound at 20 µM; confirmation repeats;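 mean of two retest wells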
# MT1-MMP act inh RFP: recorded beside MT1-MMP act inh, whose call it bears; RFP signal change, %; measured here: RFP expression control read;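 0 = vehicle wells; hits needed this value within 50% of zero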
# * = called active by the depositor; i = inactive; ? = inconclusive; / = no result given; & = joins results of further samples. A portion of the library; the hit share may differ from the screen's.
SMILES,MT1-MMP act inh,MT1-MMP act inh RFP,CSC inhib,PABP polyA inh,Yeast UUG start,Env fusion inh,eIF4H FP inh,Rce1 inh,others
COCCNC(=O)CSc1nc2nc(C)cc(C)n2n1,5,-1,-8,-8,/,-50,-16,i,
Nc1cccc(-c2cncc(N3CCN(Cc4ccccn4)CC3)n2)c1,0,4,/,/,-30,-6,/,/,
COc1ccccc1/C=N/NC(=O)c1ccc2c(c1)OCO2,-2,0,-16,-8,-12,2,-4,i,
COc1ccccc1N(C)S(=O)(=O)c1ccc(Cl)c(C(=O)Nc2cccc(C)n2)c1,11,3,-1,/,/,34,/,i,
O=C(Nc1ccc(Br)cc1)c1cccnc1N1CCCCC1,-3,-2,13,7,7,/,3,/,
COc1ccc(/C=C/C(=O)C2(O)CCCCC2)cc1,-2,-3,-10,2,-16,0,-8,i,
Cc1ccn2c(=O)nc(SCC(=O)N3CCC(C)CC3)nc2c1,-2,4,-1,/,-2,15,/,i,
CC(C)NC(=O)N(C)C[C@H]1Oc2ccc(NS(=O)(=O)c3ccccc3)cc2C(=O)N([C@H](C)CO)C[C@H]1C,4,1,-14,/,-7&-4,-2,/,/,
COCCCNC(=O)CCc1nc2cccnc2n1Cc1ccccc1,-6,-14,5,-10,-10,-25,-4,i,
O=C(Nc1ccc(C(=O)N2CCCCC2)cc1)C1CCC1,5,5,/,/,21,16,/,/,
O=C(NC1CCCCC1)C(c1ccnc2ccccc12)N1CCc2ccccc2C1 (stereo not drawn),-1,-4,/,/,-4,-15,/,/,
O=C(Nc1ccc(Oc2ccccc2)cc1)c1csc([C@@H]2O[C@H](CO)[C@@H](O)[C@H]2O)n1,22,-24,/,/,14,39,/,/,
CCOC(=O)C1CCCN(C(=O)c2ccc(N(C)C)cc2)CC1 (stereo not drawn),0,0,/,/,-18,-24,/,/,
C=CCN1CC(c2nc3ccccc3n2CCOc2ccccc2)CC1=O (stereo not drawn),8,1,-10,2,-13,-50,-2,i,
Cc1cc(C)cc(NC(=O)CSc2nc3nc(C)cc(C)n3n2)c1,0,-2,-6,/,-11,/,/,/,
CCOC(=O)c1cc(C)n(-n2cnnc2)c1C,9,4,-10,4,-21,3,-2,i,
COc1ccc(-c2c(-c3cc(OC)cc(OC)c3)n(C)c3ccc(-c4ccc(OC)nc4)cc23)cc1,3,5,21,/,-15,21,/,/,
O=C(N/N=C/c1cccnc1)c1ccc(CN2c3cccc4cccc(c34)S2(=O)=O)cc1,1,-2,6,1,6,6,6,i,
O=C1CN(C(=O)c2cccc(S(=O)(=O)N3CCCC3)c2)c2ccccc2N1,-2,-3,-4,-3,-9,8,-6,i,
Cc1ccc(Cc2c(-c3ccc(Cl)cc3)nc3cc(C)ccn23)cc1,1,-5,/,/,-3,50,/,/,
CC(C)(C)OC(=O)NCC1CCN(S(=O)(=O)Cc2ccccc2)CC1,2,1,-7,2,-12,-3,3,i,
Cc1ccc(OCc2n[nH]c(=S)n2-c2ccccc2)cc1,-1,3,-6,-2,/,3,-2,i,
CC(C)C[C@H](NC(=O)C1CC(=O)N(c2ccc3c(c2)OCO3)C1)C(=O)NCc1ccco1 (stereo partly drawn),-4,1,-22,/,-10,6,/,i,
COc1ccc(CCN2C(=O)CC(NCCc3ccc(S(N)(=O)=O)cc3)C2=O)cc1OC (stereo not drawn),1,2,1,2,-7,-63,-2,i,
O=C(Cn1c(=O)n(-c2ccccc2)c(=O)c2sccc21)NCc1ccccc1,4,4,12,0,-14,-3,-3,i,
CC12CCC(=O)N1C(C(=O)Nc1cccc(S(=O)(=O)N3CCCCC3)c1)CS2 (stereo not drawn),6,3,-4,/,-7,/,/,i,
COc1ccc(C(=O)NNC(=O)CCCCC(=O)NNC(=O)c2ccc(OC)cc2)cc1,-2,1,0,-7,/,-7,12,i,
COC(=O)C1=C(C(=O)OC)C2(OC1c1cccc(F)c1)C(=O)c1ccccc1C2=O (stereo not drawn),5,10,5,1,/,-55,-5,i,
N#CCC(=O)N/N=C/c1ccc(OCc2ccccc2)cc1,-3,3,-5,-6,/,-6,-11,i,
COC(=O)c1c(O)c2ccccc2[nH]c1=O,-2,-1,9,3,-6,-32,-1,i,
COn1c(-n2nc(C)cc2C)nc2ccccc2c1=O,-1,4,3,-6,-17,/,-5,i,
CC(C)Sc1nnc(-c2c[nH]c3ccccc23)n1C,2,0,/,-2,-16,-14,5,i,
Cc1cc(NC(=O)C2CCCN(S(=O)(=O)c3cnc[nH]3)C2)ccc1Br (stereo not drawn),-3,-4,6,-3,-11,6,0,i,
COc1ccc(/C=N/Nc2nnc(C)n2N)cc1OC,5,5,-4,-9,-39,-79,3,i,
Cn1c(SCc2c(F)cccc2Cl)nnc1-c1cccs1,4,6,-3,-4,-8,-36,-4,i,
O=C(Cc1cn2ccsc2n1)Nc1ccccn1,3,6,/,0,-19,/,-4,i,
CCCNC(=O)Cn1c2ccccc2c2nc(=O)cc(C)n21,1,3,-10,-9,-12,/,5,i,
COc1ccc(-c2[nH]ncc2CN2CCCN(c3ccccc3)CC2)c(F)c1,-2,1,9,2,-5,11,-9,i,
CCOC(=O)COc1ccccc1/C=C\[N+](=O)[O-],-33,-35,-4,-18,/,/,2,i,
COc1ccc(C2Nc3cccc4cccc(c34)N2)cc1Br,-3,3,-3,44,-7,22,62*,i,eIF4H FP inh retest=79*;PABP polyA inh retest=50
O=C(O)c1cccc(NC2=C(N3CCOCC3)C(=O)c3ccccc3C2=O)c1,5,7,-3,12,-3,-17,4,i,
O=C(NCc1ccccc1F)C1CCCN1C(=O)Nc1ccc(Cl)cc1 (stereo not drawn),5,4,-10,-10,/,9,-8,i,
O=C(O)c1cc(O)ccc1N=Nc1ccccc1,9,4,3,8,/,1,-13,i,
NC(=O)CSc1nc2cc(Cl)ccc2c(=O)n1C1CCCCC1,3,2,-5,4,-7,12,-4,i,
CCOC(=O)C1CCN(c2c(C(=O)c3ccccc3)cnc3ccc(Cl)cc23)CC1,-3,-7,-37,?,-14,-21,3,i,
Cc1ccc(CN2CCCN(Cc3cc(C)ccc3C)S2(=O)=O)cc1,0,4,/,-3,-17,1,2,i,
O=Cc1cn(-c2ccccc2)nc1-c1ccc(F)cc1,-1,-5,19,6,-4,7,-2,i,
O=C(N/N=C/c1ccc(Br)s1)c1cccs1,0,-5,15,-2,-15,-37,2,i,
C=CCN=C(C)C1=C(O)C(C)OC1=O (stereo not drawn),2,2,-7,-8,-12,-15,-9,i,
CCOc1ccccc1N1CC(C(=O)Nc2c(C)n(C)n(-c3ccccc3)c2=O)CC1=O (stereo not drawn),3,9,-6,12,/,7,-1,i,

# By substructure, the compounds so far containing two or more sulfur atoms
SMILES,MT1-MMP act inh,MT1-MMP act inh RFP,CSC inhib,PABP polyA inh,Yeast UUG start,Env fusion inh,eIF4H FP inh,Rce1 inh,others
CC12CCC(=O)N1C(C(=O)Nc1cccc(S(=O)(=O)N3CCCCC3)c1)CS2 (stereo not drawn),6,3,-4,/,-7,/,/,i,
Cn1c(SCc2c(F)cccc2Cl)nnc1-c1cccs1,4,6,-3,-4,-8,-36,-4,i,
O=C(N/N=C/c1ccc(Br)s1)c1cccs1,0,-5,15,-2,-15,-37,2,i,

# (listing goes on)
SMILES,MT1-MMP act inh,MT1-MMP act inh RFP,CSC inhib,PABP polyA inh,Yeast UUG start,Env fusion inh,eIF4H FP inh,Rce1 inh,others
O=[N+]([O-])c1cccc(NC(=S)NCc2ccncc2)c1,1,-1,7,-4,/,38,-7,i,
Cn1c(CCNC(=O)c2ccco2)nc2cc(NS(=O)(=O)c3ccccc3)ccc21,8,1,8,-15,-19,-21,-11,i,
CCOC(=O)c1c(C)[nH]c(C(=O)COC(=O)CSCC(=O)N(CC)CC)c1C,-4,-3,3,1,-1,-163,-1,i,
Clc1ccc(-c2nc3c4ccccc4ccn3c2Cc2ccccc2)cc1,3,4,/,/,19,15,/,/,
OCCNCCCOc1cc(Cl)ccc1Cl,4,6,/,11,/,9,2,i,
CC(=O)c1ccc(N2CCN(S(=O)(=O)c3cn(C)c(C)n3)CC2)cc1,2,0,-13,1,-14,/,-5,i,
N=C1/C(=C\c2ccc(SCc3ccccc3)o2)C(=O)N=C2SC=NN12,-5,1,5,-8,-8,6,?,i,
Nc1cc(C(=O)O)ccc1N1CCCCC1,0,6,-2,-1,-19,/,35,i,
CCOCCCNC(=S)NC1CC2CCC(C1)N2Cc1ccccc1 (stereo not drawn),-3,-1,-2,3,/,-14,-9,i,
Cc1ccc2[nH]cc(CCNC(=O)c3ccc4c(c3)OCO4)c2c1,-1,-5,-3,-3,-7,4,-10,i,
CCN(CC)C(=O)C(C)OC(=O)c1ccc(O)cc1 (stereo not drawn),1,7,-9,8,-7,-105,1,i,
C[C@H]1CN([C@@H](C)CO)C(=O)c2cc(-c3cccc(C(=O)N(C)C)c3)cnc2O[C@H]1CN(C)C(=O)Cc1ccccn1,3,7,/,/,-12&6,9,/,/,
Cc1cc(C)nc(NS(=O)(=O)c2ccc(Br)cc2)n1,2,4,-3,11,-8,6,2,i,
CCN(CC)CCOc1nnc(-c2ccc(C)cc2)c2ccccc12,1,-3,-6,7,-2,/,1,i,
CC(SC(C)C(=O)NN=Cc1ccc(F)cc1)C(=O)NN=Cc1ccc(F)cc1 (stereo not drawn),0,1,/,/,-12,12,/,/,
O=C(CSc1nc2ccccc2n1Cc1ccccc1)N/N=C/c1ccccc1C(=O)O,6,1,-5,5,-9,-6,0,i,
Cn1c(=O)[nH]c(Nc2ccccc2)c([N+](=O)[O-])c1=O,-1,2,4,8,/,-20,7,i,
COc1ccc(CNC(=O)Cn2cnc3c(OCc4ccccc4)ncnc32)cc1,-1,-7,/,/,-9,-3,/,/,
O=C(CNC(=O)c1ccc(Cl)cc1Cl)OCn1nnc2ccccc2c1=O,8,0,-4,/,-9,-1,/,i,
COc1cccc(COC(=O)c2cc(S(=O)(=O)N3CCCCC3)ccc2N2CCOCC2)c1OC,-1,-6,-4,/,-13,-114,/,i,
CN(C)C(=O)c1ccc(OCC(F)(F)F)nc1,2,3,-6,11,-15,-1,4,/,
Cc1cccc(C)c1NC(=O)CN1C(=O)S/C(=C\c2cccn2C)C1=O,-5,2,-11,-4,-17,-31,-12,i,
Cc1cccc(-n2nc(C)c3c(C(=O)O)cc(-c4cccs4)nc32)c1,0,-2,28,20,/,5,6,i,
O=C(Nc1ccccc1-c1nc2ccccc2[nH]c1=O)c1cccs1,-3,1,-2,2,-17,-3,-16,/,
CCCCC(=O)Nc1ccc(C(=O)Nc2ccc(S(=O)(=O)N3CCCC3)cc2)cc1,12,3,7,5,-9,/,7,i,
c1ccc2nc(N3CCCC3)c(N3CCCC3)nc2c1,-2,-7,-13,2,-7,/,-11,i,

# Source: PubChem (several laboratories)
